Compound activity (PubChem)
E coli growth: E. coli growth inhibition, primary screen, OD600; AID 1053175, 2014; 330,000 tested, 0.21% active; Escherichia coli growth, 23 h; stronger effect = lower value; OD600 absorbance (no concentration beside the values);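 active = OD600 absorbance below the run mean of sample wells minus 3.6 SD, in any replicate, cut at about 0.56 in these data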;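 also: stock transfer was 300 nL into about 60 µL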
MLL AF4-AF9 inh: inhibitors of AF4 peptide binding to AF9, primary screen, biochemical, AlphaScreen, biotin-AF4 peptide, FLAG-AF9, single point; 350,000 tested, 0.47% active; AID 651704, 2012; Protein AF-9 (Homo sapiens), P42568; inhibition, % at 10 µM;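 active = every replicate reaching a set inhibition limit, whatever the replicate mean, cut at about 25% in these data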;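 also: 0% = plate neutral control median and 100% = total signal loss; the record names both 10 and 1 µM as test concentration; the first replicate is given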
Target sequence (P42568 whole entry, looked up): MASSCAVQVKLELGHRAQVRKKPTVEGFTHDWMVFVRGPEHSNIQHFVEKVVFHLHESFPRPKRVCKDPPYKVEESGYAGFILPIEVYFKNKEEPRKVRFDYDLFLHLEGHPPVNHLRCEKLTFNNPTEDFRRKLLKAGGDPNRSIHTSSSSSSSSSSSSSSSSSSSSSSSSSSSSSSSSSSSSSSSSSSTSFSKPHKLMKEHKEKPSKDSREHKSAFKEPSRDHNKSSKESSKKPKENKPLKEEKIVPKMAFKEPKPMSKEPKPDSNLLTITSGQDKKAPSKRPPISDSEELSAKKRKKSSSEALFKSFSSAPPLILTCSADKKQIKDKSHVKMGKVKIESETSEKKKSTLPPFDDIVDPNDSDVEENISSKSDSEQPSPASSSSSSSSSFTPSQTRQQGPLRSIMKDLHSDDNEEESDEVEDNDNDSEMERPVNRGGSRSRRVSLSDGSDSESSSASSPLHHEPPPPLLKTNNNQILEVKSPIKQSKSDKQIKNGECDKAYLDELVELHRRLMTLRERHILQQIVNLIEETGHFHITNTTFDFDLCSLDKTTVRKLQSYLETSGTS
FGF22 binding: binders of human FGF22 protein, primary screen, FGF22 synaptogenesis inhibitor project, biophysical, thermal shift, single point | calls only at 9.99 µM | 340,000 tested, 1.5% active | Fibroblast growth factor 22 (Homo sapiens), Q9HCT0 | recombinant FGF22 thermal shift, SYPRO orange fluorescence; percent of sucrose octasulfate shift, DMSO zero;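 active = melting point raised past a set limit in the mean and every replicate; three in four hits are not shown here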
Target sequence (Q9HCT0 whole entry, looked up): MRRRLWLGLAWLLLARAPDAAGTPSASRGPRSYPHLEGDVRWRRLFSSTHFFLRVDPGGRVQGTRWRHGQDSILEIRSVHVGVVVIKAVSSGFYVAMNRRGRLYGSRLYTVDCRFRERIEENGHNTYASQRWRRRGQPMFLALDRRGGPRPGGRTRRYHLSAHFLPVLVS
Bfl-1 A1 inh: caspase 3/7 activation in MEF A1-2A-BIM cells, primary screen, A1 inhibitor project, cell-based, luminescence, HTS. Caspase-Glo 3/7 luminescence, 3 h; percent of clofoctol response, vehicle zero. caspase activation, % (concentration not given with the values). 330,000 tested, 0.066% active;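 active = over half of replicate activation scores above 10%, or exactly half above 10 with the replicate mean above 10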;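 also: wells of about 30 µL received 50 nL stock; many hits fall short of the cut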
Beta apoptosis: inhibitors of cytokine-induced beta cell apoptosis, primary screen, luminescence; AID 435005, 2010; 300,000 tested, 0.8% active; INS-1E cytokine-induced death, ATP luminescence, 48 h; percent of positive-control rescue, neutral wells zero; protection from apoptosis, % (no concentration beside the values);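 active = all replicates at 75% or more, or half of them and the mean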;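 also: 0% = cytokine-treated negative control wells and 100% = positive control rescue; higher means more ATP so stronger rescue from cytokine killing; wells of about 40 µL received 100 nL stock; the first replicate is given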
T cruzi repl: inhibitors of intracellular T. cruzi growth, primary screen, luminescence, NIH3T3 host cells. T. cruzi beta-gal in NIH3T3, 90 h. inhibition, % (test concentration not listed). 300,000 tested, 1.4% active;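 active = mean inhibition across valid replicates above about 55%, limit read from the data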;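 also: signal also drops with host cell toxicity which is not excluded here; 0% = plate median of DMSO wells and 100% = zero luminescence signal; higher percent means less beta-gal luminescence so fewer parasites; stock transfer was 50 nL into about 50 µL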
Ecoli rRNA inh: reduced GFP signal of wild-type E. coli, primary screen, bacterial rRNA inhibitor project, GFP/RFP fluorescence, OD600, single point; GFP signal change (wild-type ribosome), % (no concentration beside the values); 350,000 tested, 1.6% active; E. coli WT GFP vs humanized-ribosome RFP mutants, 24 h; stronger effect = lower value; DMSO median 0, no signal -100;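 active = significant combined selectivity score with lowered wild-type GFP, culture density cut under 30%, mutant RFP and density less affected; inactive = any of these conditions unmet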; also: one replicate is shown; some compounds called inactive have numbers as strong as hits
UCH37 DUB inh: inhibitors of human UCH37 deubiquitinase, primary screen, biochemical, Ub-AMC cleavage, fluorescence | 330,000 tested, 0.33% active | purified proteasome/UCH37 | inhibition, % (no concentration beside the values) | Ubiquitin carboxyl-terminal hydrolase isozyme L5 (Homo sapiens), Q9Y5K5;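 active = mean of two replicates above 20%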;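 also: 0% = compound-free wells with enzyme and 100% = wells lacking proteasome; stock transfer was 100 nL into about 20 µL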
Target sequence (Q9Y5K5 whole entry, looked up): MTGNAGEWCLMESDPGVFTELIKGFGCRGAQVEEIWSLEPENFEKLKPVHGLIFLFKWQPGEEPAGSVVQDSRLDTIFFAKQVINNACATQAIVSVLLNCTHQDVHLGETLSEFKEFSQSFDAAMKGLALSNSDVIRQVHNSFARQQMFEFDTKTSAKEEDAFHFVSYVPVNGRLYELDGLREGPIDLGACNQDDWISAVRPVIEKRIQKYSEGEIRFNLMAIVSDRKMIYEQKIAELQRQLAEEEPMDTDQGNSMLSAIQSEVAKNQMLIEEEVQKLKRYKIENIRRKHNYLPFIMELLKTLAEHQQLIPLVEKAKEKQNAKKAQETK
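Test system – human UCH37 enzyme supplied as purified proteasome complex · Incubation – 30 min preincubation with enzyme, 25 min cleavage at room temperature · Detection – AMC fluorescence from Ub-AMC cleavage, excitation 355 nm, emission 460 nm · Benchmarks – no-proteasome wells (full inhibition) and compound-free wells (no inhibition)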
Ecoli rRNA inh OD600: also measured in Ecoli rRNA inh; calls as there; OD600 change, %; measured here: OD600 growth;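 optical density of the mix in the first replicate; 0 = DMSO median and -100 = no signal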
Ecoli rRNA inh RFP: recorded beside Ecoli rRNA inh, whose call it bears; RFP signal change, %; measured here: RFP humanized mutant strains;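 first replicate; 0 = DMSO median and -100 = no signal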
Active calls of the source: *; i = inactive; / = no result given; + = active, no number. An excerpt; rates above refer to the full screens.

compound,T cruzi repl,Ecoli rRNA inh RFP,E coli growth,UCH37 DUB inh,Beta apoptosis,MLL AF4-AF9 inh,FGF22 binding,Ecoli rRNA inh OD600,Ecoli rRNA inh,Bfl-1 A1 inh
O=C(O)CCCC(=O)Nc1ccc(Oc2ncnc3cc(Cl)ccc23)nc1,-13,3.4,0.66,0.6,-3,-1.3,i,11,14,0.1
Fc1ccccc1N=C1NN=C(c2ccccc2)CS1,4,3.9,0.66,4.0,97*,2.1,i,19,24,-0.2
CCOC(=O)C1CSC2(CCC(c3ccccc3)CC2)N1 (stereo not given),-8,0.7,0.69,3.6,-1,-13,i,13,9,-0.1
Cc1nn(-c2ccc([N+](=O)[O-])cc2)c2c1C(c1cccc(Br)c1)N1C(=N2)C(=O)Nc2ccccc21 (stereo not given),82*,/,0.72,4.4,/,/,/,/,/,-0.4
Cc1ccccc1NS(=O)(=O)c1nnc(NC(=O)CC(C)C)s1,-6,1.5,0.68,1.3,-4,-4.4,i,16,10,0.5
COc1ccc(CN(CCC(c2ccccc2)C2CCOC(C)(C)C2)C(C)=O)cc1 (stereo not given),3,-8.0,0.71,4.7,2,9.1,i,-25,-17,0.3
O=C1C=C(c2ccc3ncccc3c2)C[C@@H](c2ccc(Cl)cc2)C1,/,-7.5,/,5.6,4,/,i,-29,-11,0.4
O=c1c(-c2ccccc2)cnc2n1CCS2,8,0.5,0.68,2.6,-6,-0.2,/,-12,7,-1.4
Cc1cn(C2CCCCC2)c(=O)n(-c2ccccc2)c1=O,/,0.6,0.71,3.2,/,4.0,i,7,6,/
COc1ccc(S(=O)(=O)N2CCOCC2)cc1NC(=O)CN1C(=O)CN(C)C1=O,/,2.2,0.7,-0.6,-1,-3.0,i,5,19,0.2
O=C(NCCCn1cccn1)c1cc(COc2ccc(F)cc2Cl)on1,-15,-1.2,0.68,0.7,0,-3.0,i,0,2,0.0
O=S(=O)(NC1CCCCC1)c1ccc(Br)s1,-3,0.1,0.64,4.3,-1,0.7,i,-23,0,0.6
C=CCn1c(COc2ccccc2)nnc1SCC(=O)Nc1ccc2c(c1)OCCO2,4,/,0.76,3.8,/,/,/,/,/,0.7
COC(=O)c1c(-c2ccncc2)csc1NC(=O)c1ccoc1C,37,/,0.69,-2.0,-9,/,/,/,/,0.0
O=c1[nH][nH]c(=O)c2nc(Nc3ccccc3)ncc12,/,-1.2,0.66,3.9,/,-0.5,i,12,3,/
Cc1[nH]n2cnnc2c(=O)c1Br,-14,2.1,0.69,1.5,-4,-1.3,i,12,11,-2.8
Cc1cccc(C(=O)Nc2ccc(C(=O)N/N=C/c3ccc(C)o3)cc2)c1,-3,-1.0,/,/,3,5.2,i,2,-4,-0.4
O=C(NCc1cccs1)C1CCCN1C(=O)Nc1ccc(F)cc1 (stereo not given),0,-5.2,0.67,1.1,-3,-12,i,6,9,-0.6
C=CCN1C(c2ccc(Br)cc2)=CS/C1=C(/C#N)c1nnc(N2CCOCC2)n1-c1ccccc1,28,-2.6,0.69,10,3,16,i,-37,-30,0.8
OCCC1CN(Cc2cc(F)ccc2F)CCN1CCCc1ccccc1 (stereo not given),18,9.8,0.64,-1.7,-3,2.8,i,3,10,0.6
NC(=O)CC(NC(=O)c1ccccc1)c1ccc(N2CCc3ccccc3C2)c([N+](=O)[O-])c1 (stereo not given),-25,-1.6,0.72,6.8,-7,-1.2,i,-27,-21,0.3
O=C(Nc1ccc(N2CCOCC2)cc1)C1CCN(S(=O)(=O)c2ccccc2F)CC1,-14,-2.4,0.67,7.8,7,3.9,i,10,9,0.9
CCOc1ccc(OCCCCN2CCCC2)cc1,28,/,0.71,1.8,/,/,/,/,/,-1.2
CC(=O)OCn1ncc(N2CCOCC2)c(Br)c1=O,2,2.7,0.7,7.5,-4,42*,i,11,7,0.8
CC(C)c1nc2sc3c(SCC(N)=O)ncnc3c2c2c1CCC2,4,-0.4,0.68,-0.6,/,-7.4,i,12,4,1.0
CCCS(=O)(=O)N1CCN(Cc2ccc([N+](=O)[O-])cc2)CC1,-3,/,0.69,1.5,2,/,/,/,/,0.2
Cc1nn(Cc2ccccc2)c(Cl)c1/C=C/C(=O)OC(C)C(=O)N1CCCC1 (stereo not given),11,0.4,0.63,-0.2,-1,0.1,i,-13,-11,0.0
CC1CC(N(C(=O)c2ccco2)c2ccccc2)c2ccccc2N1 (stereo not given),8,/,0.74,0.5,2,/,/,/,/,-0.4
CCn1c(CNC(=O)c2ccccc2F)nnc1SCC(=O)Nc1nncs1,-4,0.1,0.6,0.6,-4,-4.8,i,-11,-8,0.0
CN(C)C(=O)c1cc2cc(Br)ccc2s1,-18,2.0,0.69,2.5,-6,-5.3,i,12,21,0.6
COCC(C)n1c(COc2ccccc2F)nnc1SCc1c(C)noc1C (stereo not given),-5,/,0.72,-1.3,4,/,/,/,/,-0.2
O=C(c1ccc([N+](=O)[O-])o1)N1CCOCC1,44,5.5,0.54,4.2,-7,0.4,/,26,22,0.5

Entries above containing an aryl methoxy group (two):
compound,T cruzi repl,Ecoli rRNA inh RFP,E coli growth,UCH37 DUB inh,Beta apoptosis,MLL AF4-AF9 inh,FGF22 binding,Ecoli rRNA inh OD600,Ecoli rRNA inh,Bfl-1 A1 inh
COc1ccc(CN(CCC(c2ccccc2)C2CCOC(C)(C)C2)C(C)=O)cc1 (stereo not given),3,-8.0,0.71,4.7,2,9.1,i,-25,-17,0.3
COc1ccc(S(=O)(=O)N2CCOCC2)cc1NC(=O)CN1C(=O)CN(C)C1=O,/,2.2,0.7,-0.6,-1,-3.0,i,5,19,0.2

Single values from the list.
CC1CC(N(C(=O)c2ccco2)c2ccccc2)c2ccccc2N1 (stereo not given) in T cruzi repl has 8
CN(C)C(=O)c1cc2cc(Br)ccc2s1 in MLL AF4-AF9 inh has -5.3

(cont.)
compound,T cruzi repl,Ecoli rRNA inh RFP,E coli growth,UCH37 DUB inh,Beta apoptosis,MLL AF4-AF9 inh,FGF22 binding,Ecoli rRNA inh OD600,Ecoli rRNA inh,Bfl-1 A1 inh
COc1ccc(NC(=O)/C=C/c2cccc(Br)c2)cn1,-5,-2.4,0.62,8.9,5,2.5,i,9,2,-1.8
CC1CCC(C(C)C)C(OC(=O)C[n+]2cc(-c3ccc(Cl)cc3)n3c2CCC3)C1 (stereo not given),60*,-30,0.59,8.6,5,9.2,i,-80,-58,0.6
Cc1ccccc1C1c2[nH]c3ccccc3c2CCN1C(=O)c1ccc(=O)n(C)n1 (stereo not given),-12,-5.3,0.73,-1.6,2,3.5,i,-26,-23,-1.2
CS(=O)(=O)N(CC(=O)Nc1c(F)cccc1F)Cc1ccccc1,-7,-0.9,0.67,0.2,1,0.1,i,8,7,0.4
CCCCOP(=O)(c1ccc(N(C)C)cc1)C(O)c1cc(OC)c(OC)c(OC)c1 (stereo not given),-8,0.8,0.66,1.8,-1,-0.6,i,-9,-7,-1.3
O=C(O)c1ccn2c(C(=O)c3ccccc3)c(-c3ccccc3)cc2c1,12,-0.3*,0.66,4.3,2,0.8,i,-20*,-26*,0.5
Cc1nn(CC(=O)Nc2sc3c(c2C#N)CCC(C(C)(C)C)C3)c(C)c1[N+](=O)[O-] (stereo not given),48,/,0.73,0.9,2,/,/,/,/,0.1
COc1ccc(NC(=O)c2nc[nH]c2C(=O)NCc2ccccc2)cc1,17,-0.3,0.69,3.0,-7,-1.4,i,5,0,0.2
CCOC(=O)c1ccc(NC(=O)CCCN2C(=O)NC3(CCCC3)C2=O)cc1,/,-0.8,0.63,-1.5,0,-0.9,i,7,5,0.4
COc1ccc(CC(=O)OCC(=O)N2CCc3ccccc32)cc1OC,/,0.6,0.68,2.7,/,1.1,i,-4,1,/
COc1ccc(N2C(=O)CC(Nc3ccc(C)cc3)C2=O)cc1 (stereo not given),9,/,0.67,-0.5,-7,/,/,/,/,0.5
CCOc1ccc(Nc2oc(-c3ccc(Cl)cc3)nc2C#N)cc1,6,/,0.73,-364,2,/,/,/,/,-1.0
CCCCN1C(=O)C2(OCCCO2)c2cccc(C)c21,-10,-0.7,0.62,-0.1,-10,-0.9,i,-1,-3,0.2
COc1cc(C(=O)NCC(=O)NCC2COc3ccccc3O2)cc(OC)c1OC (stereo not given),-12,2.1,0.7,1.4,-5,-1.6,i,7,13,0.6
NC(=O)c1ccc(-n2nc(C(F)(F)F)c3c2CCCC3)cc1,-9,-2.5,0.66,3.4,-3,2.7,i,-22,-14,1.2
NCCS(=O)(=O)NC1CCCCC1,-6,1.9,0.71,4.4,-2,0.0,i,9,19,0.6
Cc1cccc(NC(=O)c2ccc(NCCc3ccccc3)c([N+](=O)[O-])c2)c1,-8,6.6,0.66,2.9,3,-0.1,i,-1,28,1.1
CCOC(=O)C1(Cc2ccc(Cl)cc2)CCN(C(=O)c2ccoc2)CC1,4,-6.9,0.68,2.2,-3,0.6,i,-64,-39,-1.5
CCn1c(CC(C)C)n[nH]c1=S,-13,/,0.7,-0.6,0,/,/,/,/,0.1
CCc1cccc(NC(=O)C2CCCN2S(=O)(=O)c2ccc3c(c2)CC(C)N3C(C)=O)c1 (stereo not given),-10,-0.7,0.73,0.5,8,0.6,i,-13,-6,0.4
CC(=O)c1c(C)nc2ccc(C)cc2c1-c1ccccc1,-13,-6.6*,0.71,0.2,-6,-1.2,i,-26*,-36*,0.3
CC(NC(=O)C(=O)N1CCOCC1)C(c1cccs1)N1CCN(c2ccccc2F)CC1 (stereo not given),-24,1.4,0.67,2.0,-1,0.4,i,0,0,-0.6
C=CCNC(=O)CN1CCC(c2nc3cc(C)c(C)cc3[nH]2)CC1,-1,4.9,0.71,-1.4,-4,-1.9,i,-2,-6,-0.4
CC(=O)c1ccc(OCCCC(=O)Nc2ccc(S(=O)(=O)N3CCOCC3)cc2)cc1,6,-0.5,0.7,0.0,-4,-0.3,+,4,0,-0.2
COc1ccc2nc(SCC(=O)NC3CCCc4ccccc43)[nH]c2c1 (stereo not given),-12,/,0.74,3.0,/,/,/,/,/,0.4
CCn1c(C)cc(C(=O)CSc2nnnn2C2CCCC2)c1C,/,2.1,0.65,3.4,-5,7.2,i,-23,-4,-0.2
CC(C)CC(=O)Nc1cccc(-c2nc3ccccc3o2)c1,12,/,0.67,-0.9,2,/,/,/,/,0.0
COc1ccc(C)cc1Nc1nc(C)nc2c1oc1ccccc12,2,-3.8,/,/,14,0.3,i,20,3,0.9
